Source: PubChem
Mtb MenB inh – blocks the Mycobacterium tuberculosis MenB enzyme; P9WNP5; MenB enzyme assay, absorbance read-out; some hits fall short of the stated cut; inhibition, %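 (about 12 µg/mL by stock and volumes)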; 100,000 compounds, 0.43% hits;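 active = mean of two replicates above 30%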;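 also: 0% = no compound and 100% = wells with inactive enzyme; the first replicate is given; strong numbers were not always called active; inactives centre near -10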
Target sequence (P9WNP5 whole entry, looked up): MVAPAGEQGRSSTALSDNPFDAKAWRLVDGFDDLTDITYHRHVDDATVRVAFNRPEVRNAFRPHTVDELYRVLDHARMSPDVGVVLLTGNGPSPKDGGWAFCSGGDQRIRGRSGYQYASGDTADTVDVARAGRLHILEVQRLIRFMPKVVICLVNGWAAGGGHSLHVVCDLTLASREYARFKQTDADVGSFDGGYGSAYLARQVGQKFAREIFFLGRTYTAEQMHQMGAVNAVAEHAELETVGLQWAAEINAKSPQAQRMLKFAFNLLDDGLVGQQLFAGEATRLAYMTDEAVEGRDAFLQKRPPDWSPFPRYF
PV pol inh – inhibitors of poliovirus RNA polymerase binding and polymerization; 150,000 compounds, 0.66% hits; poliovirus polymerase elongation, fluorescence polarization; stronger effect = lower value; % elongation, % (compound at 16.7 µg/mL); P03300; in the data active = % elongation below about 90%; also: some results filed as inactive read as strong as hits
MbtI inh – inhibitors of Mycobacterium tuberculosis siderophore enzyme MbtI | inhibition, %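 (about 17 µg/mL by stock and volumes)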 | 100,000 compounds, 0.89% hits | AID 493033 | purified MbtI enzyme, fluorescence intensity read-out | P9WFX0;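 active = above 50% in both replicates, above 80% if mildly self-fluorescent; inactive = the rest, strongly fluorescent compounds included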;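 also: 0% = mean of negative and 100% = mean of positive controls; one replicate is shown; some compounds called inactive have numbers as strong as hits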
PV pol inh intensity – also measured in PV pol inh; calls as there; % elongation; measured here: total intensity read-out; formula for this scale not given here;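 total fluorescence in place of polarization; lower means less elongation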
Active calls of the source: *; . = not tested or not shown; & = joins results of further samples.

SMILES	Mtb MenB inh	PV pol inh	PV pol inh intensity	MbtI inh
CCOCCc1nnc(NS(=O)(=O)c2ccc(OC)cc2)s1	26	102	102	24
Cc1noc(C)c1C(=O)O/N=C(\N)c1ccc(-c2csnn2)cc1	-7	102	102	7
CC(=O)N1N=C(c2cccs2)CC1c1cccs1 (stereo not given)	-18	103	99	152
CC1CCN(C(=O)Nc2cccc(Cl)c2Cl)CC1	-8	103	102	-24
CCN(CCCc1ccccc1)CCCc1ccccc1	-10&15	99&100	102&104	8&-8
CC(C)NC(=O)Cn1c(=O)c2cccn2c2cccnc21	-10	104	106	18
CN1CCN(c2ccc(NC(=O)c3ccc4c(c3)[nH]c(=O)n4C3CCCCC3)cc2)CC1	11	102	104	-3
Cc1oc(-c2ccc(C(=O)NC3CC3)cc2)nc1COc1ccccc1	0	99	102	-1
Cc1nc(SCC(=O)O)c(C#N)cc1C(=O)Nc1ccccc1	1	105	106	4
CCOC(=O)Cn1c(C(F)(F)F)nc2ccccc21	-20	107	100	-7
COc1ccccc1CNC(=O)c1nn(C)c2c1COc1ccccc1-2	-16	106	107	-4
Cc1ccc(NCC#N)cc1	.	103	107	-12
CCCc1[nH]nc2c1C(c1cccc(OC)c1)C(C#N)=C(N)O2 (stereo not given)	-1	102	104	4
CCCn1nnnc1NCc1ccc(C(C)C)cc1	-17	104	107	.
Cc1ccnc(NC(=O)CCC2COc3ccccc3O2)c1 (stereo not given)	-6	101	104	-1
O=C(O)c1ccccc1Nc1ccccc1	-9	101&100	104&102	46
O=C(COC(=O)c1ccccc1)Nc1ncc(C(F)(F)F)cc1Cl	.	102	108	4
C=CCn1c(COc2ccc(CC)cc2)nnc1SCC(=O)/C(C#N)=C(\C)N	-17	104	106	6
Cc1cc(C)nc(SCc2nnc(SCC(=O)Nc3ccc(S(N)(=O)=O)cc3)n2C)n1	-26	99	100	3
CCOC(=O)c1c(C)n(C)c2ccc(OCC(N)=O)cc12	-26	105	99	-2
CNC(=O)COC(=O)C1(c2ccc(Cl)cc2)CCC1	0	101	97	8
CC(=O)Nc1ccc(/C=N/N2C(C)CCCC2C)cc1 (stereo not given)	-4	102	107	-7
CC(C)=CC(=O)Nc1ccccc1C(N)=O	-22	101	101	-7
COc1ccc(-c2onc3ccc4c5ccccc5oc4c23)cc1OC	-21	101	99	10
Cc1nc2cccnc2n1-c1ccc(CC(=O)NCc2cccs2)cc1	-27	107	105	1

Of the compounds above, these have four or more nitrogen atoms.
SMILES	Mtb MenB inh	PV pol inh	PV pol inh intensity	MbtI inh
Cc1noc(C)c1C(=O)O/N=C(\N)c1ccc(-c2csnn2)cc1	-7	102	102	7
CC(C)NC(=O)Cn1c(=O)c2cccn2c2cccnc21	-10	104	106	18
CN1CCN(c2ccc(NC(=O)c3ccc4c(c3)[nH]c(=O)n4C3CCCCC3)cc2)CC1	11	102	104	-3
CCCc1[nH]nc2c1C(c1cccc(OC)c1)C(C#N)=C(N)O2 (stereo not given)	-1	102	104	4
CCCn1nnnc1NCc1ccc(C(C)C)cc1	-17	104	107	.
C=CCn1c(COc2ccc(CC)cc2)nnc1SCC(=O)/C(C#N)=C(\C)N	-17	104	106	6
Cc1cc(C)nc(SCc2nnc(SCC(=O)Nc3ccc(S(N)(=O)=O)cc3)n2C)n1	-26	99	100	3
Cc1nc2cccnc2n1-c1ccc(CC(=O)NCc2cccs2)cc1	-27	107	105	1

The list goes on:
SMILES	Mtb MenB inh	PV pol inh	PV pol inh intensity	MbtI inh
COc1ccccc1NC(=O)C#Cc1ccccc1	-23	102	102	5
CC(Sc1nnc2n1CCCCC2)C(=O)NCc1ccc2c(c1)OCO2 (stereo not given)	-23	107	111	6
Cc1ccc(O)c(C(=O)c2cnn(-c3nc(C)cc(=O)[nH]3)c2)c1	-24	100	99	193
CC(C)(C)c1ccc(C(=O)N2CCCc3ccccc32)cc1	-18	102	101	18
COc1ccc(N=C(N)/C(C#N)=C/c2[nH]c3ccccc3c2O)cc1	-85	68	194	34
CCOC(=O)CC(=N)N	-26	103	100	-5
S=C(NCCc1c[nH]c2ccccc12)NCCN1CCOCC1	-19	109	115	-8
CCc1ccc(CNc2ccc3c(c2)ncn3C)cc1	-9	101	103	106
O=C(COc1ccccc1O)NO	-80	99	101	3
O=C1CCCN1S(=O)(=O)c1ccccc1	-3	102	103	-5
Cc1nc2ccc(S(=O)(=O)NC(C(=O)Nc3ccccc3C)c3ccccc3)cc2s1 (stereo not given)	-15	103	98	-11
Cc1cccc(N(CC(=O)O)CC(=O)O)c1	-12	103	109	-2
CCOC(=O)c1[nH]c(C)c(/C(O)=C2\C(=O)C(=O)N(CCN3CCOCC3)C2c2ccco2)c1C (stereo not given)	-13	101	103	-10
COc1ccc(/C=C2\CC/C(=C\CC(C)C)C2=O)cc1Br	-3	102	100	-8
COc1ccc(Cl)cc1NC(=O)CCN1CCN(c2ccccc2C)CC1	-32	107	102	.
CCCc1cc(=O)oc2cc(OC(C)C)c(Cl)cc12	.	104	106	-30
CCn1c(C)cc2c(c1=O)C(c1cccc(OC)c1)C(C(=O)OC)=C(N)O2 (stereo not given)	7	99	103	0
CC(C)CC(c1nnnn1C1CCCC1)N1CCC(C(N)=O)CC1 (stereo not given)	5	101	102	-2
CCn1c2ccccc2c2cc(N=Cc3cc(C)n(-c4cccc(S(=O)(=O)N5CCOCC5)c4)c3C)ccc21	-18	112	120	21
CC1=NN(c2ccccc2)C(=O)C(C=C2C(=O)N(C)C(=S)N(C)C2=O)C1 (stereo not given)	-18	103	106	0
O=C(O)C1CCCCC1C(=O)N1CCCC1 (stereo not given)	-13	104	110	.
C#CCOC(=O)c1ccc(CSc2ccc(Cl)cc2)o1	7	104	96	7
O=c1oc2ccccc2o1	0	104	107	35
CC1=C(C(=O)Nc2ccccc2C(=O)NC(C)(C)C)SCCO1	-18	101	99	18
Cc1cc(OC(=O)c2ccccc2Cl)n(CCC#N)n1	-12	101	101	31

Reprinted from the part before: 6 compounds, then new ones.
SMILES	Mtb MenB inh	PV pol inh	PV pol inh intensity	MbtI inh
CC1=NN(c2ccccc2)C(=O)C(C=C2C(=O)N(C)C(=S)N(C)C2=O)C1 (stereo not given)	-18	103	106	0
O=C(O)C1CCCCC1C(=O)N1CCCC1 (stereo not given)	-13	104	110	.
C#CCOC(=O)c1ccc(CSc2ccc(Cl)cc2)o1	7	104	96	7
O=c1oc2ccccc2o1	0	104	107	35
CC1=C(C(=O)Nc2ccccc2C(=O)NC(C)(C)C)SCCO1	-18	101	99	18
Cc1cc(OC(=O)c2ccccc2Cl)n(CCC#N)n1	-12	101	101	31
COC(=O)c1c(Cn2cc(Br)ccc2=O)nc2ccccc2c1C	2	97	104	20
c1ccc2sc(NN=C3CCCC3)nc2c1	-32	105	102	12
O=C(CSc1oc(-c2ccccc2)nc1S(=O)(=O)c1ccc(Cl)cc1)NCC1CCCO1 (stereo not given)	-28	104	103	7
COc1ccc(C=Nc2cccc(Cl)c2)cc1	-23	105	104	4
CC(=O)Nc1ccc(S(=O)(=O)N2CCN(C(=O)c3ncoc3-c3ccccc3)CC2)cc1	-17	101	102	1
Clc1cc(Cl)c2nsnc2c1	-39	99	99	52
O=C(/C=C/c1cn(-c2ccccc2)nc1-c1ccccc1)OCC(=O)N1CCCC1	.	99	101	8

Random draw from the library; about 1.9% have a hit in one of these screens.
